UCH37 DUB inh: human UCH37 deubiquitinating enzyme inhibition | Q9Y5K5 | 330,000 compounds, 0.33% hits | purified proteasome/UCH37, Ub-AMC cleavage fluorescence | AID 588478 | inhibition, % (no concentration beside the values);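 active = mean of two replicates above 20%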;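 note: 0% = compound-free wells with enzyme and 100% = wells lacking proteasome; stock transfer was 100 nL into about 20 µL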
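Signal – fluorescence, ex 355 nm, em 460 nm · System – Proteasome-bound UCH37 · Input – 0.15 nM proteasome as dispensed · Timing – 30 min preincubation with enzyme, 25 min cleavage at room temperature · Read-out basis – percent inhibition of cleavage signal versus uninhibited and no-proteasome wells · Medium – Tris-HCl pH 7.4 with ATP-MgCl2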
T cruzi repl: blocks replication of Trypanosoma cruzi. T. cruzi beta-gal in NIH3T3, luminescence, 90 h. inhibition, % (concentration not given with the values). 300,000 compounds, 1.4% hits;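 active = mean inhibition across valid replicates above about 55%, limit read from the data; inconclusive = mean below that limit but half or more replicates reach it; inactive = mean below it, under half of replicates reach it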;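 note: signal also drops with host cell toxicity which is not excluded here; 0% = plate median of DMSO wells and 100% = zero luminescence signal; higher percent means less beta-gal luminescence so fewer parasites; stock transfer was 50 nL into about 50 µL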
AF4-AF9 inh: MLL-AF4/AF9 protein interaction inhibition | inhibition, % at 10 µM | 350,000 compounds, 0.47% hits | AlphaScreen, biotin-AF4 peptide binding to FLAG-AF9;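 active = every replicate reaching a set inhibition limit, whatever the replicate mean, cut at about 25% in these data; inconclusive = mean inhibition reaches that limit but some replicates miss it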;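 note: 0% = plate neutral control median and 100% = total signal loss; the record names both 10 and 1 µM as test concentration; the first replicate is given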
Target sequence (P42568 whole entry, looked up): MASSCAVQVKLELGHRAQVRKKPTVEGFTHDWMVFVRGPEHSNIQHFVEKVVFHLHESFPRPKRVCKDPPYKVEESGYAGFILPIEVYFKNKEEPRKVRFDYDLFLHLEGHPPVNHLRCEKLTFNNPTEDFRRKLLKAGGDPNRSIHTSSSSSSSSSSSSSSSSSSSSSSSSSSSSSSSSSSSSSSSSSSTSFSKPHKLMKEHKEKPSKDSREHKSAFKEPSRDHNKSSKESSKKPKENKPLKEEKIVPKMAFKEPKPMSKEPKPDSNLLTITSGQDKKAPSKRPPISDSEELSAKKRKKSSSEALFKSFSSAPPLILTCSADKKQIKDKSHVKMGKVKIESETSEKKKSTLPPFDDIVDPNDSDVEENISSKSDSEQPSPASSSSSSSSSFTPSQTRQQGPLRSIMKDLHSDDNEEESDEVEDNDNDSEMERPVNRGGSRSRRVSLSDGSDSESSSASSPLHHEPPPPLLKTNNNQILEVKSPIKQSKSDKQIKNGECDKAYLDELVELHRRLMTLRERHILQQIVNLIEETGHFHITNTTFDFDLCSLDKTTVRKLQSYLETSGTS
Beta cell apopt: blocks beta cell apoptosis. 300,000 compounds, 0.8% hits. protection from apoptosis, % (no concentration beside the values). INS-1E cytokine-induced death, ATP luminescence, 48 h; percent of positive-control rescue, neutral wells zero;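 active = all replicates at 75% or more, or half of them and the mean; inconclusive = half reach 75% but not the mean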;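 note: 0% = cytokine-treated negative control wells and 100% = positive control rescue; higher means more ATP so stronger rescue from cytokine killing; wells of about 40 µL received 100 nL stock; the first replicate is given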
Bfl-1 A1 inh: inhibitors of the anti-apoptotic protein A1, read as caspase activation; MEF A1-2A-BIM cells, Caspase-Glo 3/7 luminescence, 3 h; percent of clofoctol response, vehicle zero; caspase activation, % (no concentration beside the values); 330,000 compounds, 0.066% hits; AID 2462;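 active = over half of replicate activation scores above 10%, or exactly half above 10 with the replicate mean above 10; inconclusive = replicate mean below 10 yet half the replicates above 10; inactive = over half of replicates below 10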;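 note: wells of about 30 µL received 50 nL stock; many hits fall short of the cut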
E coli growth: E. coli growth inhibition; OD600 absorbance (test concentration not listed); 330,000 compounds, 0.21% hits; Escherichia coli growth, OD600, 23 h; hits give low values;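 active = OD600 absorbance below the run mean of sample wells minus 3.6 SD, in any replicate, cut at about 0.56 in these data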;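 note: stock transfer was 300 nL into about 60 µL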
Ecoli rRNA inh: inhibits bacterial ribosomal RNA function over humanized ribosomes | GFP signal change (wild-type ribosome), % (test concentration not listed) | E. coli WT GFP vs humanized-ribosome RFP mutants, fluorescence, 24 h; hits give low values; DMSO median 0, no signal -100 | 350,000 compounds, 1.6% hits;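 active = significant combined selectivity score with lowered wild-type GFP, culture density cut under 30%, mutant RFP and density less affected; inactive = any of these conditions unmet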; note: one replicate is shown; some compounds called inactive have numbers as strong as hits
FGF22 binding: binders of recombinant human FGF22 by thermal shift; SYPRO orange fluorescence; percent of sucrose octasulfate shift, DMSO zero; 340,000 compounds, 1.5% hits; Q9HCT0; AID 651658; calls only at 9.99 µM;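 active = melting point raised past a set limit in the mean and every replicate; inconclusive = no clear call; three in four hits are not shown here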
Target sequence (Q9HCT0 whole entry, looked up): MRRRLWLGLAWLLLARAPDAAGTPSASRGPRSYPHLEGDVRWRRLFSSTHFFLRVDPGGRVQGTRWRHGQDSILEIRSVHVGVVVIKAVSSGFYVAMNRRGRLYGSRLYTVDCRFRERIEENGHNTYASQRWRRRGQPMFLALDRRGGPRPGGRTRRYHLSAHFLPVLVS
Ecoli rRNA inh OD600: second read-out of Ecoli rRNA inh, no call of its own (marks repeat the call); OD600 change, %; measured here: OD600 growth;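 optical density of the mix in the first replicate; 0 = DMSO median and -100 = no signal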
Ecoli rRNA inh RFP: second read-out of Ecoli rRNA inh, no call of its own (marks repeat the call); RFP signal change, %; measured here: RFP humanized mutant strains;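 first replicate; 0 = DMSO median and -100 = no signal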
The depositor's hits bear a star; i = inactive; ? = inconclusive; / = no result given.

smiles	Beta cell apopt	FGF22 binding	UCH37 DUB inh	Ecoli rRNA inh RFP	Ecoli rRNA inh	Ecoli rRNA inh OD600	T cruzi repl	AF4-AF9 inh	E coli growth	Bfl-1 A1 inh
Cc1cc(NS(=O)(=O)c2ccc(NC(=O)/C=C/c3cccc(Cl)c3)cc2)no1	3	i	8.3	-0.9	-16	-21	-23	-3.4	0.7	-0.5
CCCc1nc2c(C)cc(C)cc2c(N)c1CC	17	/	-47	/	/	/	13	/	0.64	1.4
Cn1c(=O)c2c(nc3n2CC(O)CN3c2ccc(O)cc2)n(C)c1=O (centres undefined)	-4	i	3.6	1.2	9	12	-4	-1.6	0.72	2.8
O=C(O)c1ccccc1C(=O)Nc1ccccn1	0	/	2.7	/	/	/	-2	/	0.74	-0.3
O=C(O)c1cccc(CSc2nc(-c3ccc(Cl)cc3)cc(C(F)(F)F)n2)c1	1	/	9.3	/	/	/	0	/	0.7	?
Cc1ccccc1CN1CCNC1=O	1	/	0.5	/	/	/	-5	/	0.65	2.1
O=c1c2ccccc2ncn1-c1ccc([N+](=O)[O-])cc1Cl	/	i	3.0	3.1	6	2	20	-19	0.66	-0.1
CC(=O)c1cccc(CN2CCC(CO)(CCOc3ccccc3)CC2)c1	/	i	3.3	0.6	9	1	-2	1.1	0.67	0.6
CC(=O)C1=C(C)NC(C)=C(C(C)=O)C1c1cccs1	2	/	1.5	/	/	/	13	/	0.81	0.2
COc1cc(/C=C/C(=O)OCC(=O)NC(=O)NC2CCCCC2C)ccc1OC(F)F (centres undefined)	/	i	1.3	0.0	1	-11	/	-1.1	0.68	/
CCN(C(=O)c1cn(C)c(=O)c2cc(OC)c(OC)cc12)c1cc(OC)ccc1OC	-1	/	3.9	/	/	/	7	/	0.62	0.3
O=[N+]([O-])c1ccc(N2CCN(C(=S)Nc3ccc(F)cc3)CC2)cc1	76*	i	5.7	2.4	4	-2	-99	1.4	0.67	-0.8
COc1ccc(CC(=O)Nc2ccc(S(=O)(=O)N3CCOCC3)cc2)cc1	-5	i	-2.1	6.4	-7	-14	/	1.9	0.68	-0.5
CCc1nccn1Cc1cc(C=O)ccc1OC	-17	i	3.5	0.1	4	7	0	-2.6	0.69	-0.4
CCN(C(=O)COC(=O)c1cn(-c2ccccc2)nc1-c1ccccc1)C1CCS(=O)(=O)C1 (centres undefined)	-4	i	0.0	7.1*	-39*	-13*	15	3.9	0.72	-1.0
COc1ccc(CCNC(=O)CC2Oc3ccc(Cl)cc3NC2=O)cc1OC (centres undefined)	4	i	2.1	-0.2	11	11	3	-1.1	0.75	?
CC1CN(C(=O)COC(=O)c2ccccc2O)CC(C)O1 (centres undefined)	/	i	2.3	-2.8	4	2	0	-1.1	0.7	-0.5
O=C(NCc1ccccc1)C1CCCN(S(=O)(=O)c2ccc(F)cc2)C1 (centres undefined)	-4	i	4.4	-1.3	-1	8	-6	0.1	0.74	-1.0
Cc1ccc2c(c1)c(C1=NC(=S)NC1=O)c(O)n2C	1	i	5.0	0.7	9	10	-7	-3.2	0.65	-0.1
CC1CCCCC1NC(=O)Cn1cccc1C(=O)c1ccccc1 (centres undefined)	-1	i	2.4	0.9	2	-4	7	-0.8	0.68	0.5
COCCN(CCOC)c1ncnc2c1cnn2-c1ccc(Cl)cc1	-7	/	-0.4	/	/	/	-1	/	0.65	0.9
Cc1ccc(S(=O)(=O)NC(CCC(N)=O)C(=O)NCc2ccc3c(c2)OCO3)c(C)c1 (centres undefined)	/	i	3.2	-0.4	-2	-4	/	3.0	0.68	/
COc1cc(CCC(=O)NCc2ccc3c(c2)OCO3)cc(OC)c1OC	-1	i	2.7	0.2	4	9	-16	-0.5	0.7	0.6
O=[N+]([O-])c1cc2c(c(CSc3nnc4ccccn34)c1)OCOC2	-6	/	6.4	/	/	/	-7	/	0.66	-0.6
COc1ccc(CCNC(=O)C(C(=O)c2ccccc2)n2ccccc2=O)cc1OC (centres undefined)	0	/	-0.7	/	/	/	0	/	0.7	-0.4
Cc1nn(CC(=O)Nc2cc(S(=O)(=O)N3CCOCC3)ccc2Cl)c(C)c1[N+](=O)[O-]	-2	i	1.5	-2.5	-2	6	/	-6.8	0.68	0.7
Cn1nnnc1SCCNCc1ccccc1OCc1ccc(F)cc1	2	i	4.3	-1.8	10	-9	5	1.4	0.71	0.4
O=C(/C=C/c1cccs1)Nc1scc(-c2ccccc2)c1C(=O)O	/	/	16	12	-36	-53	8	27*	0.71	/
CCOc1ccccc1NC(=O)c1ccccc1-c1ccccc1	-2	i	1.4	-15	-15	-25	4	-2.3	0.68	-0.5
COC(=O)[C@@H](NC(=O)NCc1ccco1)C(C)C	-10	/	-0.4	/	/	/	-1	/	0.71	-0.5
CCC1CCCCN1C(=S)NC1CCCCC1 (centres undefined)	-3	i	0.4	-3.8	1	-4	4	1.6	0.65	1.0
Cc1cccc(SC2CCN(Cc3nc(CC4CC4)no3)CC2)c1	-6	i	1.3	4.2	-11	-2	16	0.7	0.71	0.4
CN1CCN(S(=O)(=O)c2ccc(NC(=O)Nc3cccc(Cl)c3)cc2)CC1	-2	/	1.9	/	/	/	-11	/	0.63	-0.6
Cc1ccc(-c2ccc(C(=O)O)[nH]2)cc1	-1	/	1.1	/	/	/	-5	/	0.72	-0.4
O=C(NCCc1csc(-c2cccnc2)n1)c1ccc(Br)o1	0	i	-0.4	0.7	-7	-26	3	-13	0.67	-0.7
CCCCOc1ccc(C(=O)NNC(=O)C2C3CCC(C3)C2C(=O)O)cc1 (centres undefined)	3	i	0.6	0.4	-6	-20	-2	-7.3	0.73	0.9
O=C(CCCSc1nc2ccccc2[nH]1)NCc1ccccc1Cl	-3	/	1.0	/	/	/	-14	/	0.65	-0.5
COc1cc(/C=C/C(=O)OCC(=O)NCCN2C(=O)CSC2=O)ccc1OC(F)F	-3	i	-6.0	-0.7	-3	3	5	-17	0.67	1.0
O=C(OCC(=O)N1CCCC1)c1c[nH]c2ccccc12	-9	i	-0.8	/	/	/	/	-1.2	0.65	1.0
CC(=O)Nc1c2c(nn1-c1ccc(C)cc1C)CS(=O)C2 (centres undefined)	/	i	2.5	-2.2	1	0	0	-1.8	0.77	-2.8
O=S(=O)(NCCC1CC1(Cl)Cl)c1ccccc1 (centres undefined)	-5	i	2.1	5.3	1	-3	-6	2.1	0.67	0.3
CCCn1nnc(NC(=O)C(c2ccccc2)c2ccccc2)n1	3	/	0.8	/	/	/	-3	/	0.68	-0.2
CCOc1ccc(N(CCCCO)C(=S)NC(=O)c2ccc(C)c(Br)c2)cc1	-3	i	0.4	-0.9	-8	-9	-12	-11	0.69	0.4
OC(COc1ccccc1)CN1CCN(CC(O)COc2ccccc2)CC1 (centres undefined)	-1	i	1.1	3.6	3	9	-6	3.1	0.68	-0.6
CC(C(=O)Nc1cccc(S(=O)(=O)N2CCOCC2)c1)N1CCN(C)CC1 (centres undefined)	-2	i	0.7	0.5	9	9	-1	-3.2	0.68	0.5
Cc1ccc(S(=O)(=O)N2[C@@H](c3ccc(Br)cc3)C(C(=O)O)=CC[C@H]2c2ccc(C(C)C)cc2)cc1	0	i	12	0.5*	-23*	-14*	/	-2.8	0.66	0.3
N=c1sccn1CC(=O)Nc1cc(Cl)ccc1[N+](=O)[O-]	-1	i	2.8	2.9	11	12	-19	1.1	0.66	0.7
Cc1ccccc1N=C1N=C(N)c2ccccc21	-10	i	5.5	8.7	-8	2	-14	7.3	0.66	0.7
Cc1cc(C)cc(NC(=O)CSc2nc(CSc3ccc(Cl)cc3)cc(=O)[nH]2)c1	-6	i	4.6	0.8	-4	11	-1	-8.7	0.73	1.3
CCSc1nccc(-c2nn(-c3ccc(C)cc3)ccc2=O)n1	4	/	-7.6	/	/	/	-71	/	0.76	0.2
O=C(c1ccncc1)c1ccc(N2CCN(C3CC(=O)N(Cc4cccs4)C3=O)CC2)cc1 (centres undefined)	-3	i	8.2	3.4	4	-1	14	8.1	0.68	0.1
Cc1cc(NCc2ccncc2)ccc1Br	3	i	3.5	2.4	7	6	-9	2.0	0.68	-0.4
Cc1ccc(C(=O)N2c3ccc(F)cc3CCC2C)o1 (centres undefined)	-4	/	4.5	/	/	/	-10	/	0.78	2.0
COCCn1c(SCC(=O)Nc2cc(C)on2)nc2c(c1=O)SC(C)C2 (centres undefined)	-1	i	11	5.2	2	-2	-5	-5.7	0.66	-0.2
CCC(C(=O)NCc1ccc(F)cc1)N(Cc1ccco1)C(=O)c1snc(C(N)=O)c1N (centres undefined)	0	/	-30	/	/	/	14	/	0.7	1.4
CC(C)OC(=O)CSc1nc2cc3c(cc2cc1C#N)OCO3	6	/	-11	/	/	/	1	/	0.72	0.4
COc1cc(C(=O)O[C@H]2C/C(C)=C/CC[C@@]3(C)O[C@@H]3[C@H](O)[C@@H]2C(C)C)cc(OC)c1OC	11	i	/	-0.4	-8	-2	23	4.9	/	0.8
O=C(CCC(=O)NC1CCCCCCC1)Nc1nnc(C(F)(F)F)s1	3	i	3.5	2.1	3	-2	-3	-4.6	0.71	0.0
C=CCn1c(=S)[nH]c2ccccc2c1=O	-2	/	-0.3	/	/	/	/	/	0.72	0.2
O=S(=O)(NCC1CCCO1)c1ccc2ccccc2c1 (centres undefined)	-2	/	0.7	/	/	/	-12	/	0.67	0.3

Reprinted at random: four records from the list
smiles	Beta cell apopt	FGF22 binding	UCH37 DUB inh	Ecoli rRNA inh RFP	Ecoli rRNA inh	Ecoli rRNA inh OD600	T cruzi repl	AF4-AF9 inh	E coli growth	Bfl-1 A1 inh
CC(C)OC(=O)CSc1nc2cc3c(cc2cc1C#N)OCO3	6	/	-11	/	/	/	1	/	0.72	0.4
C=CCn1c(=S)[nH]c2ccccc2c1=O	-2	/	-0.3	/	/	/	/	/	0.72	0.2
Cc1cccc(SC2CCN(Cc3nc(CC4CC4)no3)CC2)c1	-6	i	1.3	4.2	-11	-2	16	0.7	0.71	0.4
N=c1sccn1CC(=O)Nc1cc(Cl)ccc1[N+](=O)[O-]	-1	i	2.8	2.9	11	12	-19	1.1	0.66	0.7

Screening results from PubChem.

The list is partial; count on the stated rates, not on these rows.
